Bioassay records deposited in PubChem BioAssay by National Center for Advancing Translational Sciences (NCATS).
StopGo RLuc = lowers the Renilla signal of an FMDV 2A StopGo reporter | Potency, µM (series often up to 57.5 µM), inactives show at the top dose signal change, negative = less light | AID 1745857 | 120,000 tested, 0.32% active | HEK cells with a luciferase reporter of 2A StopGo recoding; active means well fitted falling curve with a large enough effect; inconclusive means small, poorly fitted or top-dose-only effect; inactive means no such curve, though single readings can be large or run the other way; further: nearly all actives have a fitted effect of over 55% in size; overnight with compound
StopGo FLuc = FMDV 2A StopGo reporter, firefly signal; HEK cells with a luciferase reporter of 2A StopGo recoding; Potency, µM (titrated, usually from 57.5 µM), for the others: at the highest dose signal change, negative = less light; 120,000 tested, 0.23% active; active = well fitted falling curve with a large enough effect; inconclusive = small, poorly fitted or top-dose-only effect; inactive = no such curve, though single readings can be large or run the other way; further: nearly all actives have a fitted effect of over 60% in size; overnight with compound
* = called active by the depositor; ? = inconclusive; & = joins results of further samples; [ ] = another dose, or the depositor's remark. On the % scale 0 is the no-effect control and ±100 the full control effect; potency means the concentration at half of the fitted maximal effect.

1: CN(c1ccccc1)S(=O)(=O)c1cccc(C(=O)N2CCN(c3ncccn3)CC2)c1
2: Cc1cc2occ(CC(=O)Nc3ccc(Cl)cc3F)c2cc1C
3: O=C(Nc1ccc(F)cc1)c1ccccc1-c1ccccc1
4: CCCCc1cc(=O)oc2cc(C)cc(OC(C)C(=O)NCCCO)c12 (stereo not given)
5: COc1ccc(N2CCN(C(=O)c3cccn3-c3nnc(N4CCCC4)s3)CC2)cc1
6: C=CCN(CCC(=O)NC(N)=O)Cc1ccccc1

assay / entry	1	2	3	4	5	6
StopGo RLuc	-8.9%	36.6%[activator]	29.6%	4.1%	-13.4%	-7.2%[1.06 µM]
StopGo FLuc	?	18.1%	48.1%[activator]	-11.2%	8.1%	1.2%

7: CN(Cc1ccc(C(N)=O)cc1)C(=O)c1cc2ccccc2[nH]1
8: Cc1cc(C)cc(NC(=O)COCc2cc(-c3ccc4c(c3)OCO4)on2)c1
9: O=C(NCC(c1ccc(Cl)cc1)N1CCCCC1)c1ccccc1F (stereo not given)
10: Cc1ccc(C)c(NC(=O)C(=O)NCCc2csc3nc(-c4ccccc4C)nn23)c1
11: O=C(Nc1ccccc1F)C1C(c2ccccc2)C1(Cl)Cl (stereo not given)
12: O=C(O)c1csc2ccccc12

assay / entry	7	8	9	10	11	12
StopGo RLuc	62.6%[activator]	-7.2%	-4.0%	-22.4%	22.8%	-2.2%
StopGo FLuc	33.7%[activator]	-0.5%	-3.9%	-9.2%	15.6%	4.3%

13: Cn1c(=O)c2nc(SCC(=O)NCc3ccc(Cl)cc3)n(C)c2n(C)c1=O
14: CCn1nc(-c2ccccc2)c(-c2ccccc2)c(C(=O)Nc2ccccc2C#N)c1=O
15: CCOc1ccc(NC(=O)C2CCN(S(=O)(=O)Cc3ccc(F)cc3)CC2)cc1
16: Cc1ccc(N(CC(=O)N2CCN(c3cc(C)ccc3C)CC2)S(=O)(=O)c2c(C)nn(C)c2C)cc1
17: CC(C)NC(=O)NC(=O)CSc1nc2ccccc2c(=O)n1-c1ccccc1Cl
18: Cc1ccc(-c2csc(-c3nc(-c4ccc(C)cc4C)cs3)n2)cc1

assay / entry	13	14	15	16	17	18
StopGo RLuc	-0.2%	23.9%	4.0%	-12.6%	10.7%	12.7%
StopGo FLuc	7.2%	-18.2%	6.6%	-28.6%	6.6%	8.1%

19: CC1(C)CCC(C)(C)c2cc(NC(=O)c3ccc(C(=O)O)cc3)ccc21
20: CCc1ccc(NC(=O)CC(C)(C)CC(=O)O)cc1
21: CCC(C(=O)NCc1ccccc1OC)N1C(=O)CCn2nc(C)cc21 (stereo not given)
22: CCCNC(=O)NC(C)(C)C(=O)O
23: CC(C)c1ccc(C(=O)Cn2cnc3c2c(=O)n(C)c(=O)n3C)cc1
24: CCOc1ccccc1NC(=O)c1cc2cc(OC)ccc2n1C

assay / entry	19	20	21	22	23	24
StopGo RLuc	-1.6%	4.6%	-1.0%	10.5%	1.2%	28.4%
StopGo FLuc	-3.9%[11.5 µM]	48.8%[activator]	-0.9%	7.5%	7.4%	38.0%[activator]

25: Cc1cc(C)cc(NC(=O)c2cccc(N3CCCS3(=O)=O)c2)c1
26: Cc1ccc(-c2nc(CC(=O)NCc3ccccc3F)cs2)o1
27: CCOC(=O)c1cc2c(=O)n3ccccc3nc2n(Cc2ccco2)c1=NC(=O)c1ccc(OC)cc1
28: COc1ccc(NC(=O)c2ccc(CNS(=O)(=O)c3ccc4c(c3)C(C)(C)C(=O)N4C)cc2)cc1
29: COc1ccc(C(=O)C(Br)C(=O)c2ccc(OC)cc2)cc1
30: O=C(CSc1nnnn1C1CC1)c1ccc2c(c1)Cc1ccccc1-2

assay / entry	25	26	27	28	29	30
StopGo RLuc	-11.8%	78.7%[activator]	8.0%	0.0%	0.1%	-13.5%
StopGo FLuc	106.1%[activator]	0.0%	108.3%[activator]	-10.5%	17.3%	13.5%

31: Cc1ccc(NC(=O)Cn2c(=O)n(Cc3ccccc3)c(=O)c3sc4ccccc4c32)cc1
32: S=C(Nc1ccc(Cl)cc1)N1CCc2ccccc21
33: CCc1ccc(C(=O)c2cn(CC(=O)Nc3cc(OC)ccc3OC)c3ccc(Cl)cc3c2=O)cc1
34: Cc1ccc(C)c(C(=O)Nc2ccc(Cl)c(C(F)(F)F)c2)c1
35: CCOCCCNc1oc(-c2ccc(S(=O)(=O)N3CCCCC3)cc2)nc1C#N
36: Cc1cc(C)cc(NC(=O)CN(C)S(=O)(=O)c2ccc3c(c2)CCC(=O)N3)c1

assay / entry	31	32	33	34	35	36
StopGo RLuc	-3.3%	13.1%	-5.5%	?	74.3%[activator]	-8.7%
StopGo FLuc	-9.8%	83.0%[activator]	-19.4%	?	15.9%	-10.6%

37: COC(=O)c1ccccc1NC(=O)c1cc2cc(C)ccc2n1C
38: CCOC(=O)C(=C(C#N)C#N)C1=C(N2CCOCC2)/C(=C/c2ccccc2)CC1
39: COc1ccc(CCNC(=O)CCc2c(C)c3ccc(O)c(C)c3oc2=O)cc1
40: CCn1c(SCC(=O)Nc2cc(C)c(Cl)cc2OC)nnc1-c1ccccc1
41: O=C(Nc1ccc(Cl)c(C(F)(F)F)c1)C(Cc1ccccc1)NS(=O)(=O)c1ccc(Br)s1 (stereo not given)
42: CCC(=O)N1CCc2cc(CNS(=O)(=O)c3cc(Cl)ccc3OC)ccc21

assay / entry	37	38	39	40	41	42
StopGo RLuc	-5.3%	?	25.8%	7.2%	-5.4%	131.5%[activator]
StopGo FLuc	-7.0%	-24.1%	-3.7%	-1.6%	-13.9%	-13.8%

43: CN(CC(=O)Nc1cccc(F)c1)C(=O)c1cccc2ccccc12
44: O=C(COc1ccccc1F)Nc1c(C(=O)Nc2cccc(F)c2)oc2ccccc12
45: Cc1cc(C)c2c(n1)SCCN2C(=O)CCC(=O)NCc1cccc(Br)c1
46: Cc1ccc2c(=O)cc(C(=O)Nc3sc4c(c3C(=O)NCc3ccco3)CCCC4)oc2c1C
47: N#Cc1nc(-c2ccco2)oc1NCCN1CCOCC1
48: Cc1cc(Cl)ccc1OCC(=O)NCc1ccc(-c2nc3ncccc3o2)cc1

assay / entry	43	44	45	46	47	48
StopGo RLuc	23.7%	4.7%	-6.9%	-16.6%	19.3%	-6.7%
StopGo FLuc	6.0%	0.0%	-1.0%	0.4%	8.2%	-3.6%

49: Cc1ccc(S(=O)(=O)NC2(C(F)(F)F)C(=O)Nc3c2c(=O)[nH]c(=O)n3-c2ccccc2)cc1 (stereo not given)
50: Cc1ccc(S(=O)(=O)N2CCCc3cc(NS(=O)(=O)c4cc(F)ccc4F)ccc32)cc1
51: Cc1ccc(NC(=O)C(C)Sc2nc3c(c(=O)[nH]2)CCCC3)cc1Cl (stereo not given)
52: COc1ccccc1NC(=O)Cn1nc(-c2cccc([N+](=O)[O-])c2)c2ccccc2c1=O
53: COc1ccc(Cl)cc1NC(=O)C(C)N1Cc2ccccc2C1=O (stereo not given)
54: CCOC(=O)c1c(NC(=O)c2cc(=O)c3cc(Cl)ccc3o2)sc(C)c1C

assay / entry	49	50	51	52	53	54
StopGo RLuc	-4.8%	35.2%[activator]	4.3%	-11.6%	30.3%[activator]	-8.0%
StopGo FLuc	-23.8%	?	-20.4%	-4.1%	-13.0%	-6.9%

Reprinted from the part before: 3 compounds, then new ones.
52: COc1ccccc1NC(=O)Cn1nc(-c2cccc([N+](=O)[O-])c2)c2ccccc2c1=O
53: COc1ccc(Cl)cc1NC(=O)C(C)N1Cc2ccccc2C1=O (stereo not given)
54: CCOC(=O)c1c(NC(=O)c2cc(=O)c3cc(Cl)ccc3o2)sc(C)c1C
55: O=C(O)c1ccc2c(c1)c(C(C(=O)O)N1CCN(Cc3cccnc3)CC1)cn2Cc1ccccc1 (stereo not given)
56: Cc1ccc(C)c(N2CCN(C(=O)c3cc4cc5ccc(C)cc5nc4o3)CC2)c1
57: COC(=O)c1ccc(Nc2nc(-c3ccc(C)cc3)nc3ccccc23)cc1
58: CCOc1cccc2cc(-c3nnc(Nc4ccc(F)c(Cl)c4)s3)c(=O)oc12
59: O=C(NC1CCCCC1)c1ccc2ncsc2c1
60: O=C(NCc1cccc(C(F)(F)F)c1)NCc1coc(-c2cccs2)n1

assay / entry	52	53	54	55	56	57	58	59	60
StopGo RLuc	-11.6%	30.3%[activator]	-8.0%	-3.0%	-2.2%	8.3%&-3.7%	-3.6%	-4.6%[1.06 µM]	29.9%
StopGo FLuc	-4.1%	-13.0%	-6.9%	4.6%	0.0%	118.8%&152.2%[activator]	-5.5%	68.2%[activator]	0.0%

Full records, quoted from the list.
Entry for CCOC(=O)c1cc2c(=O)n3ccccc3nc2n(Cc2ccco2)c1=NC(=O)c1ccc(OC)cc1 = StopGo RLuc = 8.0%; StopGo FLuc = 108.3%[activator]
Entry for Cc1cc2occ(CC(=O)Nc3ccc(Cl)cc3F)c2cc1C = StopGo RLuc = 36.6%[activator]; StopGo FLuc = 18.1%
Entry for CCOC(=O)C(=C(C#N)C#N)C1=C(N2CCOCC2)/C(=C/c2ccccc2)CC1 = StopGo RLuc = ?; StopGo FLuc = -24.1%

(cont.)
61: COc1cc(-c2nc3c(s2)CN(C(C(=O)O)c2c[nH]c4cc(F)ccc24)CC3)cc(OC)c1OC (stereo not given)
62: CCN(C(=O)c1c(C)oc2ncn(CC(C)C)c(=O)c12)c1cccc(Cl)c1
63: O=C(NC(c1ccccc1)c1ccccc1)c1cc2ccccc2[nH]1
64: CCOc1ccccc1NC(=O)CCCc1nc(-c2ccccc2Cl)no1
65: Cc1cc(CSCC(=O)Nc2c(C)cccc2C)on1
66: CN(CC(=O)NC(=O)NC1CCCCC1)C(c1ccccc1)c1ccccc1

assay / entry	61	62	63	64	65	66
StopGo RLuc	8.5%	7.4%	-15.4%	231.4%[activator]	7.1%	?
StopGo FLuc	19.3%	-6.1%	9.1%	-8.5%	26.3%	-29.6%

67: COc1cc(CC(=O)OC(C)c2ccc(F)cc2)cc(OC)c1OC (stereo not given)
68: CCOc1ccc(-c2nonc2NC(=O)COc2ccc(C)c(C)c2)cc1OCC
69: CCCC(=O)NNC(=S)NC(C)C
70: CCOc1ccc(Cl)cc1CNCCCSc1nnnn1C
71: Cn1nnnc1SCCCNCc1ccccc1OCc1ccc(Cl)cc1
72: Cc1ccc(-c2ccc(=O)n(CC(=O)NCCc3ccccc3)n2)cc1

assay / entry	67	68	69	70	71	72
StopGo RLuc	13.9%	-5.2%	-4.0%	-5.0%	-8.2%	-12.1%
StopGo FLuc	-0.8%	1.8%	20.3%	-14.3%	0.4%	23.6%

73: O=C(CCNc1nc(Cl)nc2nc[nH]c12)NCCCO
74: CCOc1cc(/C=C/c2nc3ccccc3o2)ccc1OC
75: COC(=O)c1ccc(NC(=O)CCc2c(C)[nH]n(-c3ccc(F)cc3)c2=O)cc1
76: Cc1ccc(NC(=O)c2ccccc2SCC(=O)NC2CC2)c(Cl)c1
77: CCc1ccc2oc(C(=O)Nc3nonc3CC)c(C)c2c1
78: CC(C)c1ccc(NC(=O)c2ccc(F)c(S(=O)(=O)N3CCc4ccccc43)c2)cc1

assay / entry	73	74	75	76	77	78
StopGo RLuc	-2.7%	7.2%	37.4%[activator]	2.5%	-12.6%	-1.4%
StopGo FLuc	2.1%	130.7%[activator]	15.3%	57.6%[activator]	117.1%[activator]	?

79: COc1ccc(-c2nc(-c3nonc3N)no2)cc1
80: COc1cccc(-c2c(NC(=O)c3ccc([N+](=O)[O-])cc3)oc3ccc(Cl)cc3c2=O)c1
81: CCn1nc(C(=O)N(C)CCOc2ccc(C)cc2)c2ccccc2c1=O
82: O=C(NCCc1ccc(Cl)cc1)C12CC3CC(CC(C3)C1)C2
83: COCCN(CCOC)Cc1coc(-c2cccc(F)c2)n1
84: CCOc1ccc(NC(=O)CCc2c(C)nc3c4c(C)cc(C)nc4nn3c2C)cc1

assay / entry	79	80	81	82	83	84
StopGo RLuc	7.2%	-10.3%	12.6%	?	-1.7%	-9.8%
StopGo FLuc	199.6%[activator]	10.9%	9.3%	-17.4%	18.3%	-7.1%

85: CCOc1ccc(NC(=O)[C@@H](c2ccccc2)N2Cc3ccccc3C2=O)cc1
86: CCOc1ccc(C(=O)CSc2nc3cc(C(=O)NC4CCCC4)ccc3c(=O)n2CC2CCCO2)cc1 (stereo not given)
87: CCn1c(SCc2ccccc2Br)nc2cc(S(N)(=O)=O)ccc21
88: CC1CCN(S(=O)(=O)c2cc3c4c(c2)CC(=O)N4CCC3)CC1
89: Cc1cccc(C)c1NC(=O)CNC(=O)CCc1ncc(-c2ccc(F)cc2F)o1
90: Cc1nc(SCc2coc(-c3ccc(F)cc3)n2)n[nH]1

assay / entry	85	86	87	88	89	90
StopGo RLuc	27.8%	-0.7%	152.2%[activator]	-15.1%	-10.0%	2.2%
StopGo FLuc	2.6%	-8.2%	0.0%	22.0%	2.9%	163.5%[activator]
